# TRPML1 blocker = blocks the human TRPML1 channel; Q9GZU1; TRPML1-inducible cells, Ca2+ dye fluorescence, FDSS; active compounds read low; inhibition of EC80 agonist-evoked calcium signal; activity change, negative = inhibition, % (test concentration not listed); hit rate 0.02% among 390,000; AID 624415; in the data active means activity change below about -50%; inconclusive means about -30% to -50%; inactive means above about -30%;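 further: stimulus is agonist 54-4 at its EC80 concentration; on the % scale 0 is the no-effect control and ±100 the full control effect; compound concentration not given in the record; the text of the record puts the active cut at -80%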
# Target sequence (Q9GZU1 whole entry, looked up): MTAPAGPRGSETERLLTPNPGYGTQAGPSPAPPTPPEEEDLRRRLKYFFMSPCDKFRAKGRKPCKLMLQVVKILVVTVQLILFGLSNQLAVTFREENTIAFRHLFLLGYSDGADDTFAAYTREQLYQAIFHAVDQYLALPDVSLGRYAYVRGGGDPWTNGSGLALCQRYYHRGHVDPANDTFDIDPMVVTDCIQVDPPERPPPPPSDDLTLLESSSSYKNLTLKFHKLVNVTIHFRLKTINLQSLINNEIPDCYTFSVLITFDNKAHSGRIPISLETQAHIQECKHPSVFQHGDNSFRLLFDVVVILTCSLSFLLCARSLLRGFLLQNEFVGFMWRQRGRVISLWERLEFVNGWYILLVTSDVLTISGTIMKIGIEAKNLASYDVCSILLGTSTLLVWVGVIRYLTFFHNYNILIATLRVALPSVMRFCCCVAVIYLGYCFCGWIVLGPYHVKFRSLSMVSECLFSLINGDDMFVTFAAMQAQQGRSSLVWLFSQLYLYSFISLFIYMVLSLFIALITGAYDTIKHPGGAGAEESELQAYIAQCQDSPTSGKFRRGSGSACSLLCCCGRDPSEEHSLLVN
#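 TRPML1-DL cells, Tet-induced overnight (~16 h, 37 °C) at 1,500 cells/well, were loaded with Ca8 no-wash dye plus quencher for 45-90 min at room temperature. Compounds were pinned during FDSS kinetic reading; agonist 54-4 at EC80 (4 uM final) then added.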
# TRPML1 ag = agonists of human TRPML1 channel | hit rate 0.12% among 410,000 | Q9GZU1 | activation, % (test concentration not listed) | TRPML1-expressing cells, Ca2+ dye fluorescence, FDSS; host cell line not named in the record; reference of the full effect not given here; in the data active = activation above about 50%; inconclusive = about 30% to 50%; inactive = below about 30%; further: 0% is about no effect; the text of the record puts the active cut at 80%
#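 Cells: TRPML1-DL, 1X Tet inducer, ~16 h at 37 degrees C/5% CO2. Dye: ABD Ca8 no-wash + quencher, 45-90 min RT. Read: 10 s baseline, compound add, 110 s agonist phase; 54-4 EC80 (4uM final), 110 s antagonist phase.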
# D2 agonist = human D2 receptor agonism in beta-arrestin assay; DiscoveRx PathHunter D2 beta-arrestin, luminescence, 90 min; 100% = 57 uM dopamine signal; activation, % (concentration not given with the values); hit rate 0.084% among 360,000; in the data active = activation above about 40%; inconclusive = about 15% to 40%; inactive = below about 15%; further: compound concentration not given in the record; the text of the record calls up to 30% inactive
# Target sequence (P14416 whole entry, looked up): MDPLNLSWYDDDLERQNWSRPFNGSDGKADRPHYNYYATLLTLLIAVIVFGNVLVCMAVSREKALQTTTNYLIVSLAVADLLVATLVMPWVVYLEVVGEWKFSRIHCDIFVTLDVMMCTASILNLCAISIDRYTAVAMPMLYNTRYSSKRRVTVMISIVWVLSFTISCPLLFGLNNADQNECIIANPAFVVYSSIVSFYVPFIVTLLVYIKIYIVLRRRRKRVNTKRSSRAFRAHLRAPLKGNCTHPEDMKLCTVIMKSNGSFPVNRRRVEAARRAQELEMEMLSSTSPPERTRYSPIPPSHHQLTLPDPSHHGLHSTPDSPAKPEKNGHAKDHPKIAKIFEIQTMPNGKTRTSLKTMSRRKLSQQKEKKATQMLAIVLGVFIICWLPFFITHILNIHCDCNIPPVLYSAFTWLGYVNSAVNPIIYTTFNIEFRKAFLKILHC
#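 Agonist mode: compounds alone added to overnight-plated D2 PathHunter cells for 90 min at 37 C, with 57 uM final dopamine (EC100) defining full response. Beta-arrestin recruitment detected by chemiluminescent reagent, read after 1 h at ambient temperature.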
# PINK1 modulator = changes PINK1 expression; PINK1 immunofluorescence, high-content cytometry, 24 h; Potency, µM (doses to about 76.6 µM), for the others: top-dose activation (PINK1 increase), usual class: activators; hit rate 0.2% among 410,000; AID 624263; active = well fitted activation curve with a large enough effect; inconclusive = small, poorly fitted or top-dose-only effect; inactive = flat fitted curve, though single readings scatter; cell line not stated here;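 further: potency means the concentration at half of the fitted maximal effect; % of control where 0% means no effect; nearly all actives have a fitted effect of over 65% in size; a mitochondrial uncoupler was the plate control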
#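 Decision-based qHTS: stable cells, 24 h exposure to five compound concentrations, CCCP as control. Fixed cells stained for PINK1 plus nuclear, mitochondrial and cell markers, cytometer read.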
# D2 potentiator = human D2 receptor positive allosteric modulation. P14416. DiscoveRx D2 beta-arrestin cells, luminescence, 90 min; 100% = 57 uM dopamine signal. potentiation, % (test concentration not listed). hit rate 0.23% among 360,000; active = potentiation of 50% or more; inconclusive = 30% to 50%; inactive = 30% or less;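 further: compound concentration not given in the record; tested on top of an EC20 dose of dopamine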
#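 PathHunter beta-arrestin assay in DiscoveRx D2 cells. Compounds were added with an EC20 of dopamine (50 nM final) for 90 min at 37 deg C. Luminescence was read 1 h after detection reagent, with 57 uM dopamine as the EC100 control.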
# Six1-Eya2 inh = Six1/Eya2 interaction inhibition. AID 651725. AlphaScreen GST-Six1/His-Eya2 binding, biochemical; active compounds read low; control for the full effect not named in the record. activity change, % (no concentration beside the values). hit rate 0.56% among 360,000. Q15475+O00167; in the data active = activity change below about -65%; inconclusive = about -30% to -65%; inactive = above about -30%; further: on the % scale 0 is the no-effect control and ±100 the full control effect
#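 AlphaScreen with GST-Six1 and His-Eya2 (5X mix: 250 nM and 500 nM), glutathione donor and nickel acceptor beads; buffer 50 mM Tris pH 8.0, 300 mM NaCl, 1 mM TCEP; 1 h at 37 C in the dark.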
# * marks the source's active call; other numbers are inactive results; ? = inconclusive; . = not tested or not shown; [ ] = dose if it differs, or a comment.
SMILES,TRPML1 blocker,TRPML1 ag,D2 agonist,PINK1 modulator,D2 potentiator,Six1-Eya2 inh
CCC1CN(C(=O)N2CCC(C(=O)N3CCN(c4ccccc4F)CC3)CC2)c2ccccc2O1 (configuration not stated),9,3.3,.,1.1%,.,.
CC(=O)c1ccc(N2CCN(Cc3nc4ccccc4[nH]3)CC2)cc1,31,0.4,1.6,-0.1%,-3,-1
CC(c1nnnn1C(C)(C)C)N(Cc1cccnc1)Cc1ccccc1Cl (configuration not stated),-10,-0.3,-0.2,-1.4%,11,0
Cc1ccccc1NS(=O)(=O)c1ccc(C(=O)N2CCCC2)cc1,53,-0.1,-2.1,-2.3%,-6,9
Cc1cc(NC(=O)COC(=O)C2CCCN2C(=O)c2cccs2)no1 (configuration not stated),2,0.5,-1.2,3.7%,-12,6
Cc1ccc(-c2c[n+](CC(=O)Nc3nc(-c4ccc(F)cc4)cs3)c3n2CCC3)cc1,-14,-0.3,-0.1,-2.8%,-34,-10
CCCn1c2ccccc2c2cnn(CC(=O)N(C)c3ccc(F)cc3)c(=O)c21,-3,1.4,.,9.9%,.,.
Cc1ccc2occ(C(c3nnnn3Cc3ccccc3)N3CCOCC3)c(=O)c2c1 (configuration not stated),11,-1.2,-1.0,-0.5%,-11,-2
Cc1cc(NCCCn2ccnc2)n2c(nc3ccccc32)c1C#N,1,-0.1,-1.9,4.6%,-5,-5
Cc1cc2n(n1)C(c1cn(-c3ccccc3)nc1C)Nc1c(C)cccc1-2 (configuration not stated),8,0.1,1.5,.,-2,0
O=C(c1cc2cc(Cl)ccc2oc1=O)N1CCCC1,3,-0.7,-3.4,-1.5%,-3,-1
CC(=O)NN1C(=O)c2ccc(Oc3ccc([N+](=O)[O-])cc3)cc2C1=O,4,-0.2,-1.4,.,17,-7
Cc1cc2oc(C(=O)NCc3ccc(S(N)(=O)=O)cc3)c(C)c2cc1C,-11,-0.1,-4.9,13%,-11,5
COc1ccccc1S(=O)(=O)N(C)C[C@H]1OCc2cn(nn2)CCCC(=O)N([C@@H](C)CO)C[C@@H]1C,.,.,1.9,-0.1%,.,1
COc1ccc(NC(=O)c2cc(C3CCCCN3C(=O)c3ccc4c(c3)CCO4)on2)c(C)c1 (configuration not stated),.,0.8,2.7,3.9%,-8,4
Cn1ccsc1=NC(=O)c1cccc(OC(F)F)c1,-9,0.6,-4.2,2.7%,2,-7
NC(=O)c1ccccc1OCC(=O)Nc1ccc2c(c1)OCCO2,58,-0.2,2.5,2.0%,-26,-5
O=C(NC1CCCCCC1)C1CCN(S(=O)(=O)c2ccc(F)cc2)CC1,-10,-0.2,2.2,-4.4%[38.3 µM],-6,6
O=C1c2cccc3c([N+](=O)[O-])ccc(c23)C(=O)N1CCc1ccccn1,-17,1.2,1.9,6.3%,2,4
Cc1ccccc1C(=O)Nc1ccc2oc(-c3ccc(Cl)c(Cl)c3)nc2c1,-30,-0.7,.,0.1%,.,.
CC(=O)Nc1ccc(NC(=O)COC(=O)c2ccc(S(=O)(=O)NCc3ccco3)cc2)cc1,21,1.1,-5.0,-0.3%,-8,-2
O=C(O)CN1C(=O)CC(c2ccccc2)CC1=O,2,-0.3,-0.7,2.2%,-1,10
O=C(NCc1ccccc1)NC(=O)c1ccccc1F,7,1.3,3.5,1.0%,-3,11
O=C(NCCN1CCOCC1)c1ccc2c(c1)N(Cc1ccccc1F)C(=O)CS2,-11,0.9,0.1,-0.8%,15,4
NC(=O)c1ccc(-c2ccc(Br)cc2)o1,14,1.3,0.8,-3.7%,0,-4
O=C(C1CCCN(S(=O)(=O)c2cccs2)C1)N1CCN(C2CCCCC2)CC1 (configuration not stated),-3,-0.8,-2.3,3.9%,3,7
CC1(C)C(=O)Nc2ccccc2N1C(=O)COc1cc(Cl)ccc1Cl,12,-0.4,-2.0,-0.9%,3,2
Cc1c(OCC(=O)N2CCN(c3ccccc3)CC2)ccc2c3c(c(=O)oc12)CCCC3,-6,-0.7,0.7,-0.3%,-3,3
CCOc1ccc(CN2CCN(Cc3ccc(C)o3)CC2CCO)cc1 (configuration not stated),2,0.6,-5.1,3.0%,-16,-1
O=C(CCCCCN1C(=O)C2C3C=CC(C3)C2C1=O)Nc1nccs1 (configuration not stated),16,1.1,-3.9,-1.2%,-1,-3
CCN1CC(CN(C)Cc2cn(-c3ccc(C)cc3)nc2-c2ccc(F)cc2)CC1=O (configuration not stated),17,0.3,-2.5,-0.7%,-11,-18
CC1CN(C(=O)COC(=O)c2ccccc2O)CC(C)O1 (configuration not stated),-5,0.2,-1.5,1.5%,-7,11
CC(=O)CSc1ncnc2scc(-c3ccc(F)cc3)c12,-12,-0.5,5.7,-0.4%,5,1
CCOC(=O)[C@]12CCCC=C1N(Cc1ccc3c(c1)OCO3)C(=O)[C@H](CC(=O)NCc1cccs1)C2,.,0.1,.,-1.3%,.,1
O=c1c2[nH]c3ccccc3c2nc2n1CCS2,-5,-1.4,-0.1,1.8%,-3,-3
CCN1CCCC1CNC(=O)c1ccc2c(c1)N(Cc1ccccc1F)C(=O)c1ccccc1S2(=O)=O (configuration not stated),-3,1.7,-1.3,-0.1%,-29,-12
O=C1c2ccccc2C(=O)N1OS(=O)(=O)c1ccc(F)cc1,8,-0.7,-2.0,4.0%,-5,2
COc1cccc(CNc2nc3cc(-c4ccccc4)sc3c(=O)n2C)c1,.,-0.7,9.5,1.9%,0,1
O=C(CCCN1C(=O)/C(=C/c2ccccc2Cl)SC1=S)NNC(=O)c1ccncc1,3,5.1,5.3,6.4%,3,-14
CC1=NN(C(=O)COc2ccccc2)C(O)(c2ccccc2)C1 (configuration not stated),31,0.2,-1.2,0.5%,-17,3

# 3 compounds from above, arranged by molar mass, low to high.
SMILES,TRPML1 blocker,TRPML1 ag,D2 agonist,PINK1 modulator,D2 potentiator,Six1-Eya2 inh
CCOc1ccc(CN2CCN(Cc3ccc(C)o3)CC2CCO)cc1 (configuration not stated),2,0.6,-5.1,3.0%,-16,-1
COc1cccc(CNc2nc3cc(-c4ccccc4)sc3c(=O)n2C)c1,.,-0.7,9.5,1.9%,0,1
CCC1CN(C(=O)N2CCC(C(=O)N3CCN(c4ccccc4F)CC3)CC2)c2ccccc2O1 (configuration not stated),9,3.3,.,1.1%,.,.

# Additional records follow.
SMILES,TRPML1 blocker,TRPML1 ag,D2 agonist,PINK1 modulator,D2 potentiator,Six1-Eya2 inh
CC(=O)Nc1ccccc1-c1nc2ccc(C(=O)N3CCN(c4cccc(C)c4)C(C)C3)cc2[nH]c1=O (configuration not stated),5,0.2,8.3,2.1%,-3,-3
CCn1c(C(O)c2cc(OC)c(OC)c(OC)c2)nc2ccccc21 (configuration not stated),-1,-0.5,3.3,-1.0%,-12,5
COc1ccc(CCn2c(-c3ccc(C(C)(C)C)cc3)n[nH]c2=S)cc1OC,2,1.8,0.9,-1.9%,-2,-4
Cc1ccc2nc(COc3ccccc3NC(=O)COc3ccc(F)cc3)cc(=O)n2c1,-12,-0.7,.,0.7%,.,.
O=C1C(=C(c2ccccc2)N2CCOCC2)Cc2ccccc21,3,-0.8,-8.0,-0.5%,-41,2
CC(=O)CC(c1ccccc1)S(=O)(=O)c1ccc([N+](=O)[O-])cc1 (configuration not stated),-11,1.0,-5.9,-1.0%,-5,11
COc1ccc(-c2cc(C(=O)NCC3CCCO3)c3ccccc3n2)c(OC)c1 (configuration not stated),6,-0.2,-5.5,3.5%,-7,1
Clc1cccc(CNCCCSc2ncccn2)c1Cl,-6,-0.6,3.4,-0.9%,-22,1
O=C(NCC1CCCO1)c1cccc(NC(=O)c2ccco2)c1 (configuration not stated),20,-0.2,0.9,-1.1%,-6,14
C/C(=N\NC(=O)Cc1ccccc1[N+](=O)[O-])c1cccnc1,3,-0.8,-2.8,-0.3%,7,3
CC(C)(C)SCCNC(=O)/C=C/c1ccc(F)cc1,1,0.0,-0.3,-1.1%,-14,-7
Cc1cccc(C)c1NC(=O)CSc1nc2ccccc2c(=O)[nH]1,-2,-0.9,-5.3,64%[38.3 µM],-17,9
CCC(C)N(C)Cc1cccc(C2(O)CCN(S(=O)(=O)c3ccc(F)cc3)CC2)c1 (configuration not stated),26,0.5,1.5,?,-5,2
Clc1ccc2nc(-c3cccc(Br)c3)c(Cc3ccsc3)n2c1,2,1.5,-3.6,3.2%,-6,5
CCCc1cc(Nc2ccccc2C)n2ncnc2n1,3,0.4,0.7,0.4%,0,-7
CC(C)(C)c1ccc(C(=O)N2[C@H](COCc3ccccc3)C=CS2(=O)=O)cc1,.,0.1,-5.8,0.7%,-8,7
COc1ccc(NC(=O)CSc2oc(-c3ccc(C)cc3)nc2S(=O)(=O)c2ccc(C)cc2)c(OC)c1,-10,-0.4,.,-2.8%,.,.
Cn1c(Cc2cccs2)nnc1SCC(=O)Nc1ccccc1,-1,-0.6,-0.4,3.4%,-17,1
CC(=O)Nc1ccc(NC(=O)C(Cc2ccccc2)NC(=O)C2CCCCC2)cc1 (configuration not stated),-5,-0.6,-2.9,8.8%,-22,0
Cc1c(Cl)cccc1NC(=O)Cn1cc(C(F)(F)F)cc(Cl)c1=O,14,0.2,-4.7,14%,1,-1
CCCCCc1c(C)nc(Nc2nc(C)c3cc(OC)ccc3n2)[nH]c1=O,26,-0.9,-2.9,1.8%,-12,-9
O=C(Cc1ccccc1Cl)N1CCN(c2ncccn2)CC1,-4,-0.6,2.8,-0.7%,-12,6
Nc1ccccc1NC1CCCCC1,-18,1.0,-4.5,1.8%,-28,-19
NNC(=O)c1ccc(CSc2nc3ccccc3s2)cc1,16,-0.6,6.1,1.1%,-6,1
COc1ccc(NS(=O)(=O)c2ccc3oc(=S)[nH]c3c2)cc1,.,.,-0.4,0.3%,-7,-1
COC(=O)c1ccc2c(c1C(=O)OC)CN(S(=O)(=O)C(C)(C)C)[C@@H]2CCO,4,0.1,0.1,-0.4%,.,2

# Filtered by structure: the entries above with a thiophene ring, fused or not
SMILES,TRPML1 blocker,TRPML1 ag,D2 agonist,PINK1 modulator,D2 potentiator,Six1-Eya2 inh
Cc1cc(NC(=O)COC(=O)C2CCCN2C(=O)c2cccs2)no1 (configuration not stated),2,0.5,-1.2,3.7%,-12,6
O=C(C1CCCN(S(=O)(=O)c2cccs2)C1)N1CCN(C2CCCCC2)CC1 (configuration not stated),-3,-0.8,-2.3,3.9%,3,7
CC(=O)CSc1ncnc2scc(-c3ccc(F)cc3)c12,-12,-0.5,5.7,-0.4%,5,1
CCOC(=O)[C@]12CCCC=C1N(Cc1ccc3c(c1)OCO3)C(=O)[C@H](CC(=O)NCc1cccs1)C2,.,0.1,.,-1.3%,.,1
COc1cccc(CNc2nc3cc(-c4ccccc4)sc3c(=O)n2C)c1,.,-0.7,9.5,1.9%,0,1
Clc1ccc2nc(-c3cccc(Br)c3)c(Cc3ccsc3)n2c1,2,1.5,-3.6,3.2%,-6,5
Cn1c(Cc2cccs2)nnc1SCC(=O)Nc1ccccc1,-1,-0.6,-0.4,3.4%,-17,1

# Compound activity deposited in PubChem BioAssay by National Center for Advancing Translational Sciences (NCATS).
